Source: PubChem (ICCB-Longwood Screening Facility, Harvard Medical School)
GIV Gai3 FP = inhibitors of GIV peptide binding to Galpha-i3, primary screen, biochemical, fluorescence polarization, FITC-GIV GBA peptide, rat Galphai3; Guanine nucleotide-binding protein G(i) subunit alpha-3 (Rattus norvegicus), P08753; 90 min; stronger effect = lower value; scaled: aluminum fluoride 0%, vehicle 100%; percent of control (FP), % (test concentration not listed); 0.42% of 210,000 active;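 active = replicate mean at 85% of control or lower, very high polarization wells dropped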;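 also: wells of about 15 µL received 100 nL stock; the first replicate is given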
Target sequence (P08753 whole entry, looked up): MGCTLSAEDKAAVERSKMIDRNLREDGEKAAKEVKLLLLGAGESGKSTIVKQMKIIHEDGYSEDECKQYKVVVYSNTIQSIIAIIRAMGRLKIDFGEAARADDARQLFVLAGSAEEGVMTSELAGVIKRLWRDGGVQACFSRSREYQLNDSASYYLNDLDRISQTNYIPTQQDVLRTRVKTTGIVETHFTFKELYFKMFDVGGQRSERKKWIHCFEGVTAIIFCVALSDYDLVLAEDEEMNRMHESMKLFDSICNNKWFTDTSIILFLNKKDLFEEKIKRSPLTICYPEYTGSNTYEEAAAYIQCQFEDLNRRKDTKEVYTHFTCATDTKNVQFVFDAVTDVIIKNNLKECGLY
Sa growth 42C = S. aureus growth inhibition at 42 and 30 °C, primary screen, LtaS inhibitor project, RN4220, two temperatures; OD600, 20 h, 42 °C; stronger effect = lower value; relative growth, % (no concentration beside the values); 0.53% of 170,000 active; AID 720641, 2013;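 active = growth at 42 °C up to 50% and 20 or more points under that at 30 °C, or under 10% at both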;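 also: 300 nL library stock went into each well; scaled to the means of positive and negative controls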
HCMV NEC inh = inhibitors of HCMV UL50-UL53 interaction, biochemical, HTRF | normalized percent inhibition | inhibition, % (no concentration beside the values) | 0.15% of 190,000 active;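 active = both replicates at 50% or more, plus weaker picks with an unusually low signal ratio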;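 also: stock transfer was 100 nL into about 20 µL; 0% = negative control wells and 100% = wells with untagged competitor protein; inactives centre near -12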
Sa growth 42C second temp = second read-out of Sa growth 42C, no call of its own (marks repeat the call); relative growth, %; measured here: growth at 30 °C;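 optical density after 20 h as mean of two plates; 100% = untreated growth and lower means inhibition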
An asterisk follows results filed as active; x = not tested or not shown; & = joins results of further samples.

SMILES	GIV Gai3 FP	Sa growth 42C	Sa growth 42C second temp	HCMV NEC inh
CCN(Cc1ccccc1)C(=O)CN1C(=O)COc2ccc(S(=O)(=O)N3CCCCCC3)cc21	101	115	88	x
CCOc1cc(C2C(C(=O)Nc3ccccc3)=C(C)Nc3nnnn32)ccc1OC(=O)c1ccccc1 (stereo unspecified)	104	x	x	-2
C[C@H](NC(=O)/C(C#N)=C/c1ccc(O)c(O)c1)c1ccccc1	126	x	x	-21&-34
CC(C)NC(=O)C1CCC(=O)N1Cc1ccccc1Cl (stereo unspecified)	99	87	87	x
CCCOc1ccc(C(=O)N2CCC(c3nc4ccccc4s3)CC2)cc1	96	110	85	-18
NC(=O)N1CCCC1=O	105	115	107	-9
NC1=[N+](c2ccccc2)Cc2ccccc21	x	110	87	-29
Cn1c(-c2cc3ccc(O)c(CN4CCCCCC4)c3oc2=O)nc2ccccc21	126	107	99	-71
Cc1ccc2c(=O)c(C(=O)c3ccccc3)cn(CC(=O)Nc3ccc4c(c3)OCCO4)c2n1	110	107	72	x
COc1ccc(OC)c(Nc2ncc3c(n2)CCNC3)c1	107	x	x	11
Cc1ccc(C(=O)CC(c2ccccc2)C(C#N)C#N)cc1 (stereo unspecified)	x	48*	73*	-1
Cc1nn(-c2ccccc2)c(Oc2ccc(F)cc2)c1/C=N/NC(N)=O	x	81	98	-26
COc1cccc(CN2C(=O)c3ccccc3Sc3ccc(C(=O)NCCc4ccc(C)cc4)cc32)c1	101	99	91	-21
O=C(/C=C/c1ccc(Br)o1)Nc1nccs1	x	113	89	-25
O=c1oc2ccccc2c(N2CCN(c3ccccc3F)CC2)c1CN1CCCC1	100	104	88	-8
CCNc1nc(NCC)nc(N2n3c(nc4sc5c(c4c3=O)CCCC5)SCC2(O)c2ccc(OC)cc2)n1 (stereo unspecified)	96	105	100	0
COc1ccc(NC(=O)c2cccc3c2C(=O)N(C2CCCCC2)C3)cc1	104	90	96	8
O=C(O)C12CCCC(Br)(CCC1)C2	x	80	85	-15
Cc1cc(C)n2nc(CN(C(=O)CC(C)C)c3cccc(Cl)c3)nc2n1	113	x	x	-12
CCN(C(=O)CSc1ccccn1)C1CCCCC1	x	111	81	-22
O=C(CSc1ccccc1C(=O)O)NCC1CCCCC1	x	89	85	-29
c1ccc(-c2noc(CSc3nc4ccccc4[nH]3)n2)cc1	101	97	73	-14
CC(C)(C)C(=O)Nc1ccc(-c2nc3ccc(NC(=O)C(C)(C)C)cc3[nH]2)cc1	100	96	99	9
Cc1ccc(S(=O)(=O)c2nc(-c3ccc(F)cc3)oc2N2CCN(c3ccccc3)CC2)cc1	96	94	91	7
COc1ccc(CNc2nc(-c3ccco3)nn2S(=O)(=O)c2ccc(Cl)cc2)cc1OC	100	105	84	0
Cc1[nH]c2ccccc2c1C(=O)CSc1ncccn1	x	84	96	-33
CC(C)c1cc(C(=O)N2CCOCC2)no1	103	x	x	-30
COc1cccc(C(=O)Nc2ccccc2C(=O)OCc2cc(=O)n3nc(C4CC4)sc3n2)c1	100	94	92	x
CN(C)c1cccc(C(=O)N(CCCN2CCCC2=O)CC(=O)N2CCNCC2)c1	102	x	x	-2
CCCCOc1ccc(-c2cc3c(=O)n(CC(=O)Nc4ccc(Cl)cc4)ccn3n2)cc1	101	x	x	-11
Cc1cc(C(=O)COC(=O)Cc2ccsc2)c(C)n1NC(=O)c1ccccc1	x	95	87	-20
O=C(Cn1c(=O)oc2cc(S(=O)(=O)NCc3ccccc3)ccc21)Nc1ccc(F)c(Cl)c1	102	103	87	x
Clc1c(-c2nnc3n2CCC3)sc2ccccc12	x	108	82	-67
Cc1coc2cc3oc(=O)c(CC(=O)NCCc4ccccc4F)c(C)c3cc12	98	106	88	-37
CNC(=O)C1CCCN1S(=O)(=O)c1ccc(OC)cc1 (stereo unspecified)	102	110	93	0
O=C(CSc1nn(-c2ccc(F)cc2)c(=S)s1)NC1CC1	x	99	94	-20

Complete entries as entered above. Screens in order: GIV Gai3 FP | Sa growth 42C | Sa growth 42C second temp | HCMV NEC inh
Cc1cc(C(=O)COC(=O)Cc2ccsc2)c(C)n1NC(=O)c1ccccc1 is listed as x | 95 | 87 | -20
COc1ccc(CNc2nc(-c3ccco3)nn2S(=O)(=O)c2ccc(Cl)cc2)cc1OC is listed as 100 | 105 | 84 | 0
Cc1coc2cc3oc(=O)c(CC(=O)NCCc4ccccc4F)c(C)c3cc12 is listed as 98 | 106 | 88 | -37
Clc1c(-c2nnc3n2CCC3)sc2ccccc12 is listed as x | 108 | 82 | -67
O=C(Cn1c(=O)oc2cc(S(=O)(=O)NCc3ccccc3)ccc21)Nc1ccc(F)c(Cl)c1 is listed as 102 | 103 | 87 | x

(further entries)
SMILES	GIV Gai3 FP	Sa growth 42C	Sa growth 42C second temp	HCMV NEC inh
CCc1ccc(C2=C(C)C(=O)N(CC(=O)NCc3cccc(Br)c3)S2(=O)=O)cc1	101	x	x	2
O=C(NC1CC1)C1CCN(c2cnccn2)CC1	98	82	85	-24
Cc1c(C(=O)OC2CCCC2)[nH]c2c1C(=O)CCC2	98	109	85	x
CCCCc1nnc(SCC(=O)Nc2nccs2)n1CC	100	103	97	0
CCOC(=O)C1=C(c2ccccc2)NC(SCC(N)=O)=C(C#N)C1c1ccco1 (stereo unspecified)	100	95	87	-32
CC(C)Cn1cc(C(=O)NCc2cccnc2)c2c3ccccc3n(C)c2c1=O	94	87	76	-22
COc1ccc(NC(=O)c2cc(-c3cccs3)nc3ccccc23)cc1	x	91	102	-6
CN(C(=O)Cc1cccc2ccccc12)C(C)(C)C#N	x	100	93	-9
COc1ccc(-n2nc(C(=O)N3CCC(C)CC3)c3c4ccccc4n(C)c3c2=O)cc1	106	97	94	-1
COc1cccc(NC(=O)C2CCCN(S(=O)(=O)c3ccc4c(c3)CC(C)N4C(C)=O)C2)c1 (stereo unspecified)	108	x	x	-17
Cc1nn(-c2ccc3nncn3n2)c2c1C(c1ccc(OCc3ccc(F)cc3)cc1)CC(=O)N2 (stereo unspecified)	107	x	x	7
O=C(CCCn1c(=O)c2cccn2c2ccccc21)N1CCCCC1	106	89	73	x

The closing 2 records of the part above lead into the next.
SMILES	GIV Gai3 FP	Sa growth 42C	Sa growth 42C second temp	HCMV NEC inh
Cc1nn(-c2ccc3nncn3n2)c2c1C(c1ccc(OCc3ccc(F)cc3)cc1)CC(=O)N2 (stereo unspecified)	107	x	x	7
O=C(CCCn1c(=O)c2cccn2c2ccccc21)N1CCCCC1	106	89	73	x
CCSc1ccc(NC(=O)CC2c3ccccc3Oc3ccccc32)cc1	101	86	84	x
Cc1cccc2sc(N)nc12	97	116	95	-13
NNC(=O)CNC(=O)C1COc2ccccc2O1 (stereo unspecified)	107	109	102	x
CCOC(=O)c1ccc(Nc2ccc(-c3ccc(OC)c(OC)c3)nn2)cc1	105	84	90	6
Cc1[nH]c2ccccc2c1C=Nc1ccc(Cl)cc1C(=O)c1ccccc1	x	77	69	-19
CC1=C(C(=O)N2CCOCC2)C(c2ccccc2)NC(=O)N1 (stereo unspecified)	x	90	89	-29
Cc1oc2cc(OC(C)C)ccc2c(=O)c1-c1ccccc1	100	111	76	-13
O=C1NC(=O)/C(=C\c2cn(Cc3ccccc3F)c3ccccc23)N1	107	111	76	x
Cc1ccc2oc(-c3ccccc3)c(CN3CCOCC3)c(=O)c2c1	108	106	72	x
CC(C)(C)C1CCC(OC(=O)CN2CCOCC2)CC1 (stereo unspecified)	x	102	89	-37
COc1ccc(N2CCN(C(=O)CCC3=NS(=O)(=O)c4ccc(C(F)(F)F)cc4N3)CC2)cc1	105	96	94	-33
Cc1nc(C)c(-c2ccc(SCC(=O)Nc3ccccc3F)nn2)s1	109	96	71	x
CC1N=C(SCC#N)N2C(C)N=C(SCC#N)N12 (stereo unspecified)	94	93	94	-9
COc1ccc(Nc2ncc3c(n2)CC(c2ccccc2)CC3=O)cc1 (stereo unspecified)	x	84	98	-19
COc1ccc(OC)c(NC(=O)C2CCN(S(=O)(=O)c3ccc4c(c3)CCCC(=O)N4)CC2)c1	103	92	88	x
O=c1c2ccccc2nc2n1CC(=NCc1ccccc1)N(Cc1ccccc1)C2	x	100	98	-10
CCCCNc1nc2c(S(=O)(=O)c3ccc(Br)cc3)nnn2c2ccsc12	98	118	86	x
CCn1c(CNC(=O)c2cccc(C)c2)nnc1SCC(=O)NC1=NCCS1	105	84	91	-13
N#Cc1ccc(NS(=O)(=O)c2ccc(-c3cnc(C4CC4)o3)cc2)cc1	99	63	50	x
Cc1ccc(NC(=O)CCS(=O)(=O)c2cccc3nonc23)cc1Cl	104	96	87	-56
Cc1ccc(S(=O)(=O)NC(=O)N(C)CCc2ccccn2)cc1	100	85	85	-40
COc1ccc(-n2c(SCC(=O)c3ccc(Cl)cc3)nc3c([nH]c4ccccc43)c2=O)cc1	94	103	81	x
CC1(C)Cc2c(c(N3CCOCC3)[nH]c(=S)c2C#N)CS1	x	66	82	-4
CC(=O)N(C)Cc1nc(-c2ccc(Cl)cc2)no1	96	110	84	-2
N#CC1=C(N)Oc2c(c(=O)oc3ccccc23)C12C(=O)N(CC(N)=O)c1ccccc12 (stereo unspecified)	106	89	82	-15
Cc1ccc(N(Cc2nc3nc(C)cc(=O)n3[nH]2)S(=O)(=O)c2ccccc2)cc1	107	x	x	-20
CNc1nc(-c2cccs2)ns1	105	112	92	-2
CCN(c1cc(C)cc(C)c1)S(=O)(=O)c1nnc(NC(=O)c2ccco2)s1	103	92	65	-19
Cc1cc(=S)[nH]c2cc(Br)ccc12	x	85	83	-28
COCCOC(=O)C1=C(C)NC2=C(C(=O)CC(c3ccc(Cl)cc3)C2)C1c1cc(OC)ccc1OC (stereo unspecified)	106	x	x	-6
Cc1ccc(-c2nn3c(-c4cccnc4)nnc3s2)cc1	107	x	x	-14
COc1ccc(C(=O)N2CCc3cc4ccc(OC)cc4nc32)cc1	105	x	x	10
COc1ccc(-c2cc(C3CC3)nc(SCC(N)=O)c2C#N)cc1	102	113	108	-27
CC(Sc1nnc(-c2ccccc2F)n1CCc1ccccc1)C(=O)NCc1ccco1 (stereo unspecified)	x	84	94	15
CC(=O)Oc1ccc([N+](=O)[O-])cc1/C=C1\Sc2ccccc2C1=O	103	x	x	-50
COc1ccc(C2c3cc(OC)c(OC)cc3CC(=O)N2c2ccc(F)cc2)cc1 (stereo unspecified)	104	x	x	-12
O=C(Cn1cc(C(=O)c2ccco2)c2ccccc21)Nc1ccccc1	105&104	111&117	93&87	-3&-5
CN(C)CCN1C(=O)C(=O)/C(=C(/O)c2ccc(S(=O)(=O)N3CCOCC3)cc2)C1c1ccc(Br)cc1 (stereo unspecified)	106	89	86	-46
CC1CCCCN1CCn1cnc2c([nH]c3ccc(Cl)cc32)c1=O (stereo unspecified)	111	105	88	-9
Cc1ccc(/C=C/c2onc(C)c2S(=O)(=O)N2CCC(C(=O)N3CCC(N(C)C(C)C)CC3)CC2)cc1	106&100	139	80	-76
CC(C)(C)C(=O)OCc1nc(-c2ccc(C#N)cc2)cs1	106	101	95	3
Cc1ccc(N2CCN(C(=O)c3cccs3)CC2)c(C)c1	x	110	86	-3
CN(C)c1ccc(NC(=O)c2sc(=S)[nH]c2N)cc1	x	84	85	-11
O=C(c1cc2n(n1)CCCN(Cc1ccc(F)cc1)C2=O)N1CCCC1	102	x	x	-27
COc1ccc(/C=C/C(=O)NCc2nc3ccccc3[nH]2)cc1OC	x	113	95	-32
O=S(=O)(NCCSCc1c(F)cccc1Cl)c1cccc2nonc12	107	88	72	-64
CC(NC(=O)c1ccc(C(F)(F)F)cc1)C(c1cccs1)N1CCCC1 (stereo unspecified)	x	107	99	13
CCCCn1c(NCc2ccccc2OC)nc2ccccc21	105	77	83	-36
Cc1ccc2nc3c(cc2c1)CCN3S(=O)(=O)c1ccc(OC2CCCC2)cc1	110	x	x	-14
CN(C(=O)CO/N=C/c1ccc(OC(F)F)cc1)C1CCS(=O)(=O)C1 (stereo unspecified)	x	95	97	1
COc1ccc(NC(=O)c2cc(-c3cccnc3)on2)cc1OC	91	x	x	-6
c1ccc2c(CNCCN3CCOCC3)cccc2c1	101	86	88	-18
CN1c2ccsc2-c2nc(SCc3ccc(Cl)cc3)ncc2S1(=O)=O	101	107	91	-27
CCOc1cc(/C=c2\sc3n(c2=O)C(c2c(OC)ccc4ccccc24)C(C(C)=O)=C(C)N=3)ccc1O (stereo unspecified)	121	x	x	-31
CCOc1ccc(-c2nc(SCC(=O)Nc3cc(F)ccc3F)n3[nH]c(=O)cc3n2)cc1	101	107	89	x
CCNc1n[nH]c(N)c1-c1nc(-c2ccc(OC)cc2)no1	129	x	x	-15
COc1ccc(Nc2nc(Cl)nc(NCc3ccco3)n2)cc1	97	x	x	-18
Cc1nn(-c2ccccc2)c(C)c1C(N)=O	98	92	100	-8
O=C(NC1CC1)c1ccc(Cn2c(SCc3ccccc3Cl)nc3ccncc32)cc1	105	x	x	2
Cc1cccc(NC(=O)CSc2nc(C3CCCC3)nc3c2c(=O)n(C)c(=O)n3C)c1C	103	101	92	x
